# PAFAH1B3 FP inh: PAFAH1B3 enzyme inhibitors, primary screen, biochemical, fluorescence polarization, human. Platelet-activating factor acetylhydrolase IB subunit alpha1 (Homo sapiens), Q15102. recombinant PAFAH1B3, FP-rhodamine probe. inhibition, % at 3.39 µM. 340,000 compounds, 0.28% hits;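 active = inhibition above the screen-wide average of all tested compounds plus 3 SD, cut at about 25% in these data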;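 note: 0% = enzyme with DMSO only and 100% = wells lacking PAFAH1B3 protein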
# pPAFAH inh: pPAFAH enzyme inhibitors, primary screen, biochemical, fluorescence polarization, human | Platelet-activating factor acetylhydrolase (Homo sapiens), Q13093 | recombinant pPAFAH, FP-rhodamine probe fluorescence polarization | inhibition, % at 3.39 µM | 330,000 compounds, 1.5% hits;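 active = inhibition above the mean inhibition across the screen plus 3 SD, cut at about 25% in these data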;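 note: inhibitors block binding of the rhodamine activity-based probe so polarization drops; 0% = enzyme with DMSO and 100% = wells lacking pPAFAH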
# GSTO1 counter: inhibitors of recombinant GSTO1, primary screen, counter-screen for RBBP9 inhibitor project, biochemical, fluorescence polarization; activity-based probe fluorescence polarization; AID 1974, 2009; 300,000 compounds, 1.1% hits; Glutathione S-transferase omega-1 (Homo sapiens), P78417; inhibition, % at 5.96 µM;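 active = inhibition above the campaign mean inhibition plus 3 SD, cut at about 35% in these data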;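 note: 0% = GSTO1-1 with DMSO and 100% = wells lacking GSTO1-1 enzyme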
# PAFAH2 inh: PAFAH2 enzyme inhibitors, primary screen, biochemical, fluorescence polarization, human; Platelet-activating factor acetylhydrolase 2, cytoplasmic (Homo sapiens), Q99487; recombinant PAFAH2, FP-rhodamine activity probe; inhibition, % at 3.39 µM; 340,000 compounds, 0.99% hits; AID 492956, 2010;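 active = inhibition above the mean over all tested compounds plus 3 SD, cut at about 30% in these data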;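 note: inhibitors block probe labeling of enzyme so polarization drops; 0% = enzyme with DMSO and 100% = wells lacking PAFAH2 protein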
# PAD4 inh: human PAD4 inhibitors, primary screen, biochemical, fluorescence polarization, 1536-well format. AID 485272, 2010. recombinant PAD4, RCA probe fluorescence polarization. inhibition, % at 6.36 µM. 330,000 compounds, 0.41% hits. Protein-arginine deiminase type-4 (Homo sapiens), Q9UM07;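 active = percent inhibition above a cutoff equal to the mean of all tested compounds plus 3 SD, cut at about 15% in these data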;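 note: 0% = PAD4 with RCA probe and DMSO and 100% = probe without PAD4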
# Target sequence (Q9UM07 whole entry, looked up): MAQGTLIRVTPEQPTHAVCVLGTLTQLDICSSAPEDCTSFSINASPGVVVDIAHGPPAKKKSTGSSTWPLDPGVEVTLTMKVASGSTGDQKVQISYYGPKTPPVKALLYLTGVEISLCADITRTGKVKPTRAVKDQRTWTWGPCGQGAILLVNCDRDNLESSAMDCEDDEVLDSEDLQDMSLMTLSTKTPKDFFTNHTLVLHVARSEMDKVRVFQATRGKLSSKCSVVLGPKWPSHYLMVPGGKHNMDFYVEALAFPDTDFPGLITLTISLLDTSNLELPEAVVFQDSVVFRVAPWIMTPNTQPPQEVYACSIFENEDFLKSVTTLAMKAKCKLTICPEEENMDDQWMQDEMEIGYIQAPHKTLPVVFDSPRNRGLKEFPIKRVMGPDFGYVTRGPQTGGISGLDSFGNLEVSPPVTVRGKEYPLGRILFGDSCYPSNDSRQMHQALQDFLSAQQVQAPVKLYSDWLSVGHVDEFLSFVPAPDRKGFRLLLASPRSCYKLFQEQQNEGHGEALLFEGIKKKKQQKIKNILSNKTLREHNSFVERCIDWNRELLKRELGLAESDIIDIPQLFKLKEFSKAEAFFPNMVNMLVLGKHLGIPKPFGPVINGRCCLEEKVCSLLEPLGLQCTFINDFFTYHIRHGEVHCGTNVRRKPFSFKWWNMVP
# LYPLA2 inh: LYPLA2 inhibitors, primary screen, counter-screen for PME1 inhibitor project, biochemical, fluorescence polarization, FP-Rh probe ABPP. AID 2177, 2009. Acyl-protein thioesterase 2 (Homo sapiens), O95372. 320,000 compounds, 0.38% hits. inhibition, % at 5.9 µM. recombinant LYPLA2;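 active = inhibition above the screen-wide mean plus 3 SD, limit set per campaign, cut at about 26% in these data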;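 note: 0% = LYPLA2 with DMSO and 100% = wells lacking LYPLA2 enzyme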
# PAFAH1B2 FP inh: PAFAH1B2 enzyme inhibitors, primary screen, biochemical, fluorescence polarization, human; Platelet-activating factor acetylhydrolase IB subunit alpha2 (Homo sapiens), P68402; AID 492953, 2010; recombinant PAFAH1B2, FP-rhodamine activity probe; inhibition, % at 3.39 µM; 340,000 compounds, 1.2% hits;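 active = inhibition above the mean of all tested compounds plus 3 SD, cut at about 24% in these data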;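 note: 0% = enzyme with DMSO and 100% = wells lacking PAFAH1B2; many of its hits are not listed in these tables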
# LYPLA1 counter: LYPLA1 inhibitors, primary screen, counter-screen for PME1 inhibitor project, biochemical, fluorescence polarization, FP-Rh probe ABPP. Acyl-protein thioesterase 1 (Homo sapiens), O75608. recombinant LYPLA1. inhibition, % at 5.9 µM. 320,000 compounds, 0.16% hits;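 active = inhibition above the mean of all tested compounds plus 3 SD, set per campaign, cut at about 14% in these data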;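 note: inhibitors block serine hydrolase probe labeling of LYPLA1 so polarization falls; 0% = enzyme with DMSO and 100% = wells lacking LYPLA1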
# The depositor's hits bear a star; / = no result given.
# Below each SMILES – PAFAH1B3 FP inh | pPAFAH inh | GSTO1 counter | PAFAH2 inh | PAD4 inh | LYPLA2 inh | PAFAH1B2 FP inh | LYPLA1 counter
O=C(O)C1CCN(c2ccc(S(=O)(=O)N3CCC(C(=O)O)CC3)cc2[N+](=O)[O-])CC1
→ 5.2 | -2.2 | 16.4 | 5.1 | -5.5 | -1.0 | 3.0 | 1.8
O=C(Nc1cccc(NC(=O)N2CCN(c3ccccc3)CC2)c1)N1CCN(c2ccccc2)CC1
→ 5.1 | 2.9 | 9.8 | 2.1 | -0.8 | 3.6 | 7.5 | -5.5
CC(CCc1ccc(O)cc1)NCCC(c1ccccc1)c1ccccc1 (stereo not given)
→ 1.0 | -4.9 | 3.1 | 7.7 | -4.0 | 1.7 | 3.1 | 0.9
CC(=O)c1ccccc1NC(=O)COC(=O)c1ccc2c(c1)nc(C)n2-c1ccccc1
→ / | 1.0 | 0.2 | / | -2.0 | 4.7 | / | -4.6
CC1(C)C=Cc2c(c3c(c4c(=O)c(-c5ccc(O)cc5)coc24)OC(C)(C)CC3)O1
→ 10.9 | 26.2* | 14.9 | 8.0 | 0.1 | -7.5 | 0.4 | -9.4
O=C(c1ccc2c(c1)OCO2)N1CCN(c2ccc(F)cc2)CC1
→ -9.2 | 3.0 | -3.6 | -10.1 | -0.5 | 4.6 | 6.0 | -0.2
Cc1occc1-c1nnc(SCC(=O)NC(C)(C)C)n1C(C)c1ccccc1 (stereo not given)
→ 9.6 | 4.8 | 5.8 | -0.4 | -4.4 | -0.1 | 5.4 | -1.9
Cc1ccc(-n2c(SCC(=O)NCc3cccs3)nnc2-c2ccoc2C)cc1
→ 0.8 | 7.2 | 1.3 | 7.5 | 1.9 | 0.6 | 0.4 | -1.0
N#CC1=C(N)N=C(SCc2cccc3ccccc23)C(C(N)=O)C12CCCCC2 (stereo not given)
→ 6.8 | 8.5 | -6.1 | 2.2 | -1.7 | 5.6 | 14.0 | 2.9
CCn1c(=O)c2c(nc3n2CCCN3CCc2ccccc2)n(C)c1=O
→ 3.3 | -0.5 | 5.2 | 9.0 | 5.6 | 6.8 | -2.8 | 4.5
Cc1cc(NC(=O)CSc2sc3c(O)cc(=O)[nH]c3c2C#N)ccc1Br
→ 8.7 | 51.9* | -11.6 | -4.8 | -9.1 | -26.9 | 6.8 | -35.4
COc1cccc(CN2CCNC(=O)C2CC(=O)NC2Cc3ccccc3C2)c1 (stereo not given)
→ 2.7 | 1.4 | 4.7 | -4.3 | -2.9 | -2.9 | -3.3 | -9.4
C/C=C(\C)C(=O)NCCN1C2=NC[C@@H](C)N2C[C@H]1Cc1ccc(O)cc1
→ 1.0 | 3.0 | -6.6 | -0.2 | -2.0 | -6.7 | -6.9 | -2.6
COc1cc(CNCCN2CCOCC2)ccc1OCc1ccc(Cl)cc1Cl
→ 6.7 | 10.3 | 14.3 | -2.1 | -2.0 | 6.3 | 15.0 | 2.7
CCc1ccc(NC(=O)CSc2ccc(-c3ccco3)nn2)cc1
→ 0.7 | 3.0 | -4.3 | -4.7 | -1.8 | -4.0 | 1.6 | -2.7
CC1CC(C)(C)NC(=S)N1CCCC(=O)N1CCN(c2ccc(F)cc2)CC1 (stereo not given)
→ 1.7 | 6.3 | 3.1 | -2.4 | -3.7 | -4.2 | -2.6 | -3.4
CCOC(=O)c1[nH]c2cc3c(cc2c1NC(=O)CN1CCC(C)CC1)OCO3
→ 4.3 | 5.2 | 5.6 | -2.8 | 4.3 | -4.3 | 0.3 | -2.3

# Grouped by structure, the entries above with an NH in an aromatic ring (2)
# Below each SMILES – PAFAH1B3 FP inh | pPAFAH inh | GSTO1 counter | PAFAH2 inh | PAD4 inh | LYPLA2 inh | PAFAH1B2 FP inh | LYPLA1 counter
Cc1cc(NC(=O)CSc2sc3c(O)cc(=O)[nH]c3c2C#N)ccc1Br
→ 8.7 | 51.9* | -11.6 | -4.8 | -9.1 | -26.9 | 6.8 | -35.4
CCOC(=O)c1[nH]c2cc3c(cc2c1NC(=O)CN1CCC(C)CC1)OCO3
→ 4.3 | 5.2 | 5.6 | -2.8 | 4.3 | -4.3 | 0.3 | -2.3

# Only PAFAH1B2 FP inh and pPAFAH inh, for some of the entries so far:
SMILES	PAFAH1B2 FP inh	pPAFAH inh
CC1CC(C)(C)NC(=S)N1CCCC(=O)N1CCN(c2ccc(F)cc2)CC1 (stereo not given)	-2.6	6.3
CCOC(=O)c1[nH]c2cc3c(cc2c1NC(=O)CN1CCC(C)CC1)OCO3	0.3	5.2

# Not all compounds are listed; rates above refer to the full screens.
